SARS PLpro yeast: inhibitors of SARS-CoV papain-like protease in yeast; actives 0.19% (n = 330,000); S. cerevisiae expressing SARS-CoV PLpro, growth rescue; control for the full effect not named in the record; AID 485353; Potency, µM (top dose mostly 32.9 µM), for the others: at the top dose activity, positive = growth rescue; further: 0% is about no effect; nearly all actives have a fitted effect of over 55% in size; growth read by luminescence after 48 h
Marburg entry inh: inhibitors of Marburg virus binding or cell entry | Marburg virus pseudotyped entry inhibition, cell reporter; control for the full effect not named in the record; about a third of the inactives were read at about 46 µM | Potency, µM (titrated, usually from 37.8 µM), without a hit: at the highest dose activity change, negative = inhibition, actives largely listed as inhibitors | actives 1.8% (n = 300,000) | AID 540276; active = well fitted inhibition curve with a large enough effect; inconclusive = small, poorly fitted or top-dose-only effect, or effect the other way; inactive = flat fitted curve, though single readings scatter; tested in HEK293 cells; about a fifth of its hits are not listed in these tables; further: on the % scale 0 is the no-effect control and ±100 the full control effect; luciferase read-out
RE007 growth inh: less growth of the S. pombe RE007 Vpr strain. Potency, µM (doses to about 92.2 µM), for inactives: top-dose activity change, negative = less growth. S. pombe RE007 Vpr strain, BacTiter-Glo ATP luminescence, 24 h; control for the full effect not named in the record. AID 651644. actives 0.21% (n = 360,000); active = well fitted falling curve with a large enough effect; inconclusive = small, poorly fitted or top-dose-only effect; inactive = no such curve, though single readings can be large or run the other way;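 further: on the % scale 0 is the no-effect control and ±100 the full control effect; nearly all actives have a fitted effect of over 50% in size; the assay follows cell death caused by Vpr and the record does not say whether a fall means rescue or toxicity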
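Fission yeast RE007 carrying one integrated HIV-1 vpr copy, seeded at OD 0.01 in PMG+AL medium with 23 nL pinned compound. Grown 24 h at 30 degrees; viability read by BacTiter-Glo luminescence after 5 min.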
NS1 inh: influenza NS1 inhibition. Potency, µM (doses to about 46.1 µM), without a hit: at the highest dose activity, positive = more growth. actives 0.4% (n = 270,000). S. cerevisiae slowed by influenza A NS1, growth recovery by OD600; further: actives are rising curves; nearly all actives have a fitted effect of over 50% in size
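Recovery from NS1-induced slow growth read by OD600 in budding yeast switched to galactose assay medium (pH 6.0, -URA) at 1:100 dilution. Compound 23 nl per well; the matching strain lacking NS1 serves as control.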
2A StopGo: lowers the luciferase signal of an FMDV 2A StopGo reporter. human cells with a luciferase reporter of 2A StopGo recoding; control for the full effect not named in the record. Potency, µM (doses to about 57.9 µM), inactives show at the highest dose signal change, negative = less light. actives 1.2% (n = 410,000); active = well fitted falling curve with a large enough effect; inconclusive = small, poorly fitted or top-dose-only effect; inactive = no such curve, though single readings can be large or run the other way; tested in HEK293T cells; further: on the % scale 0 is the no-effect control and ±100 the full control effect; nearly all actives have a fitted effect of over 45% in size; luciferase light after 4 h
Lassa entry inh: blocks Lassa virus binding to or entry into cells | Potency, µM (highest dose often 37.9 µM), for the others: at the highest dose activity change, negative = inhibition, hits mostly inhibitors | Lassa virus pseudotype entry inhibition, cell reporter; control for the full effect not named in the record | AID 540256 | actives 1.2% (n = 300,000); active means well fitted inhibition curve with a large enough effect; inconclusive means small, poorly fitted or top-dose-only effect, or effect the other way; inactive means flat fitted curve, though single readings scatter; tested in HEK293 cells; further: on the % scale 0 is the no-effect control and ±100 the full control effect; nearly all actives have a fitted effect of over 50% in size; luciferase read-out
Cruzain inh Det: cruzain (T. cruzi) inhibition with detergent | actives 0.43% (n = 200,000) | Potency, µM, inactives show max response, negative = inhibition, actives largely listed as inhibitors | AID 1478 | purified cruzain, Z-FR-AMC fluorescence, 0.01% Triton | P25779; active means well fitted curve in the direction sought with a large enough effect; inconclusive means small, poorly fitted or top-dose-only effect, or another doubt; inactive means no such curve, though single readings can be large; an effect the other way counts as inactive or inconclusive;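 further: plate controls were neutral wells for no effect and buffer without enzyme for full effect; nearly all actives have a fitted effect of over 40% in size; top concentration of the series not given in the record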
Target sequence (P25779 123-467 limits assumed): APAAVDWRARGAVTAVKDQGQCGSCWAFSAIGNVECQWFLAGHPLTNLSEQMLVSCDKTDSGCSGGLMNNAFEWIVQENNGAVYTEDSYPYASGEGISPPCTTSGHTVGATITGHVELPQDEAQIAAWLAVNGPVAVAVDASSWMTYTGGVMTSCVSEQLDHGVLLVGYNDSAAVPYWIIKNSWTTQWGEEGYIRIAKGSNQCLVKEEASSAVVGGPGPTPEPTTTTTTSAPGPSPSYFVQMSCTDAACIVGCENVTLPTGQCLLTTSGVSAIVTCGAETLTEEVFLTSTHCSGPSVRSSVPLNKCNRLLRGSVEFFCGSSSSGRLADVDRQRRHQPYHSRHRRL
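15 min RT preincubation of 1.5 nM cruzain with compound, then 2 uM Z-FR-AMC added; kinetic AMC fluorescence, 60 s delta. Triton X-100 0.01%, pH 5.5.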
Cruzain inh noDet: cruzain (T. cruzi) inhibition without detergent; P25779; purified cruzain, Z-FR-AMC fluorescence, no detergent; Potency, µM, without a hit: max response, negative = inhibition, hits mostly inhibitors; actives 2.3% (n = 200,000); active means well fitted curve in the direction sought with a large enough effect; inconclusive means small, poorly fitted or top-dose-only effect, or another doubt; inactive means no such curve, though single readings can be large; an effect the other way counts as inactive or inconclusive;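 further: plate controls were enzyme without inhibitor for no effect and buffer without enzyme for full effect; nearly all actives have a fitted effect of over 40% in size; top concentration of the series not given in the record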
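Purified cruzain at 1.5 nM, pre-incubated 15 min with compound at room temperature in 100 mM sodium acetate pH 5.5, 5 mM DTT, 0.00005% Triton X-100. Reaction started with 2 uM Z-FR-AMC; AMC fluorescence increase over 60 s gives rate.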
The depositor's hits bear a star; ? = inconclusive; · = no result given; & = joins results of further samples; [ ] = remark or other dose. Unless noted, the call rests on the fitted dose curve; in most records, active means well fitted rising curve with a large enough effect; inconclusive means small, poorly fitted or top-dose-only effect; inactive means no such curve, though single readings can be large or run the other way. Potency means the concentration at half of the fitted maximal effect.

SMILES	SARS PLpro yeast	Marburg entry inh	RE007 growth inh	NS1 inh	2A StopGo	Lassa entry inh	Cruzain inh Det	Cruzain inh noDet
O=C(NCCS(=O)(=O)N1CCN(c2ccccc2F)CC1)c1cccs1	-1%	-16%	6%	·	-29%	-10%	·	·
CCn1c(/C=N/Nc2ccc(C(=O)O)cc2)nc2ccccc21	25%	12%	-7%	3%	25%	9%	2.1%	-3%
Cc1cn(C2OC[C@@H](O)[C@@H]2CO)c(=O)[nH]c1=O (stereo not given in full)	0%	-2%	-5%	5%	-3%&1%	·	4.2%	-15%
CC(=O)NC12CC3CC(C1)CC(C(=O)OCC(=O)Nc1ncc(Cl)c(C)c1Cl)(C3)C2	-4%	18%	0%	9%	-5%	20%	-9.0%	-14%
COc1ccc(CNc2cc(C)ccn2)cc1	1%	?	-7%	-1%	5%	9%[46.1 µM]	·	·
O=S(=O)(/N=C(/c1ccc(F)cc1)N1CCCCC1)c1ccc(Cl)cc1	8%	-18%	0%	-3%	44%[activator]	-3%	-2.0%	3%
CCOc1ccc(NC(=O)CCC(=O)N/N=C(\C)c2cccs2)cc1	-3%	·	3%	7%	24%	·	·	·
CCN(CC)S(=O)(=O)c1cccc(NC(=O)/C=C/c2ccc([N+](=O)[O-])cc2)c1	11%	0%	-3%	27%	-23%	-9%	-0.1%	-24%
Cc1ccc(C(=O)NCCc2nnc3ccc(SCC(=O)Nc4ccccc4C)nn23)cc1	4%	29%	1%	0%	11%	?	1.6%	-5%
CCCNC(=O)CSc1nccn1Cc1ccco1	0%	?	-4%	5%	0%	2%	·	·
Cc1nn(CC2CC2)c(=O)n1N(C)c1ncc(C(F)(F)F)cc1Cl	1%	0%[46.1 µM]	27%	2%	-9%	-20%	·	·
O=C(NC1CC1)c1ccc(C2SCC(=O)N2Cc2ccccc2)cc1 (stereo not given)	2%	?	-3%	·	-21%	-4%[46.1 µM]	·	·
O=S(=O)(Nc1cccc(-c2cn3c(n2)SCC3)c1)c1ccccc1F	-1%	-5%	?	13%	4%	-1%	·	·
O=C1NC(=O)C(Cc2cccc(Oc3ccccc3)c2)S1 (stereo not given)	-4%	5%[46.1 µM]	1%	-111%	-4%	?	·	·
Cc1nn2c(COc3ccc(NC(=O)c4ccccc4Cl)cc3)nnc2c2ccccc12	12%	7.1µM*	1%	?	-28%	?	-3.2%	?
CC(=O)c1c(C)nc2nonc2c1N	-5%	22%	40%	4%	-19%	-2%	1.0%	7%
Cc1cc(C)c(C#N)c(SCC2COc3ccccc3O2)n1 (stereo not given)	-15%	9%	-19%	-12%	-28%	-2%	-4.2%	0%
CSc1cccc(NC(=O)CN(c2ccc(C)cc2C)S(C)(=O)=O)c1	0%	-9%	8%	-53%	-6%	?	-9.4%	10%
Cc1ccc(/C=N/Nc2cn[nH]c(=O)n2)o1	0%	-10%[46.1 µM]	-9%	-7%	24%	15%[46.1 µM]	·	·
Cn1ccnc1SCC(=O)N1CCc2ccccc21	-9%	·	1%	14%	14%	·	·	·
O=c1c2ccccc2oc2cc(OCc3ccc(F)cc3)cc(O)c12	-3%	-1%[46.1 µM]	-11%	0%	10%	8%	·	·
CC1=C(c2ccc(C(C)C)cc2)S(=O)(=O)NC1=NCc1ccc(Cl)cc1	·	19%[46.1 µM]	·	·	11%	23%[46.1 µM]	-3.2%	-5%
CC(C)N1CCN(Cc2ccc3c(c2)Cc2ccccc2-3)CC1CCO (stereo not given)	0%	·	-6%	3%	-10%	·	·	·
Oc1ccccc1-c1cc(C(F)(F)F)nc(-c2ccccc2)n1	0%	2%[46.1 µM]	15%	3%	-15%	2%[46.1 µM]	·	·
Cc1cc(C(C)(C)C)cc(C)c1S(=O)(=O)N1CCN(C(=O)c2cc([N+](=O)[O-])c[nH]c2=O)CC1	-2%	-3%[46.1 µM]	2%	13%	?	?	·	·
O=C(CCN1CCCCC1)N/N=C/c1c[nH]c2ccccc12	1%	0%[46.1 µM]	-3%	7%	18%	19%[46.1 µM]	·	·
CCn1c(SCC(=O)N/N=C/C=C\c2ccccc2[N+](=O)[O-])nc2ccccc21	-5%	-26%	3%	1%	-20%	25%	-3.7%	0%
Cc1cc(C)c(C)c(OCCCCn2cnc3ccccc3c2=O)c1	-3%	2%	-13%	-5%	-26%	-21%[14.3 µM]	-11%	10%
N#C/C(=C/c1ccc(CNS(=O)(=O)c2ccccc2)o1)C(N)=O	19%	?	32%	9%	28%	-2%	-7.1%	7%
Cc1cc(NC(=O)C(C)SCC(=O)OCC(=O)N(C)c2ccccc2)no1 (stereo not given)	2%	·	-8%	·	-9%	17%	·	·
CCOC(=O)C1CCN(c2c(C(=O)c3ccc(C)cc3)cnc3ccc(F)cc23)CC1	·	-1%[46.1 µM]	·	·	?	·	-2.8%	9%
CCCn1c(Cc2ccccc2)n[nH]c1=S	-4%	-2%	-1%	3%	10%	18%	-8.5%	1%
CCC(C)c1ccc(S(=O)(=O)N2CCN(C(C)C(=O)NC3CCCC3)CC2)cc1 (stereo not given)	2%	-21%	-15%	·	-7%	2.8µM*	·	·
O=C(COC(=O)Cc1ccc(Cl)cc1)Nc1ccc(OC(F)F)cc1	-2%	-8%	-6%	-7%	0%	20%	-9.5%	-2%
Cn1c(O)c(/C=N/c2ccccn2)c(=O)n(C)c1=O	-6%	-1%	-10%	-3%	·	-21%	-4.5%	?
CSCCC(NC(=O)/C(=C/c1ccc2c(c1)OCO2)NC(=O)c1cccc([N+](=O)[O-])c1)C(=O)O (stereo not given)	-4%	·	16%	-1%	-6%	·	·	·
COc1ccc(NC(=O)CN(C)CC(=O)Nc2cccc(F)c2)cc1Cl	4%	?	16%	-3%	-16%	?	·	·
OCC1(Cc2ccc(F)cc2F)CCCN(CCCc2ccccc2)C1 (stereo not given)	0%	·	3%	3%	-23%	·	·	·
COc1cc(C(=O)N(c2ccc(C)c(C)c2)C2C=CS(=O)(=O)C2)cc(OC)c1OC (stereo not given)	0%	-11%	-15%	0%	-12%	12%	·	·
O=C(CS(=O)(=O)c1cccc2nsnc12)NCc1ccccc1Cl	·	·	·	·	-10%	-13%[46.1 µM]	-3.1%	0%
CCOc1ccc(S(=O)(=O)N2CCN(C(=O)c3cc4c(s3)CCCC4)CC2)cc1	-11%	17%	5%	-18%	-27%	3%	-2.6%	-2%
COc1ccc2[nH]c3c(C)c4ccncc4c(C)c3c2c1	0%	·	4%	-54%	?	·	·	·
CC(=O)c1c(C)nc(-c2ccccc2)nc1NC(=O)C(C)C	12%	0%	-23%	-1%	-17%	1%	0.8%	-3%
c1ccc(-c2nc3ccccc3[nH]2)cc1	-19%	·	-22%	-75%	34%[activator]	·	·	·
CNc1snc(C)c1C(=O)OC(C)C(=O)Nc1cccc(C)c1 (stereo not given)	-5%	?	27%	·	?	-17%	·	·
CC(=O)c1cccc(NC(=O)c2cc(-c3ccco3)on2)c1	-9%	7%[46.1 µM]	20%	-16%	43%[activator]	4%	·	·
CC(C)OCCCNC(=O)CSc1c2c(nc3ccc(Cl)cc13)CCCC2	·	-19%[46.1 µM]	·	·	?	-13%[46.1 µM]	-15%	-15%
COc1cccc(-c2cc(C(=O)N3CCCCCC3)no2)c1	-20%	·	-15%	-95%	31%[activator]	·	-6.9%	-8%
CNC(=O)c1csc(-c2ccccc2)n1	-4%	14%	-2%	-21%	30%	15%	4.5%	0%
CCNC(=O)c1ccc(OCC(=O)Nc2ccc(F)cc2)c(OC)c1	2%	?	26%	·	22%	23%	·	·
CCCNC(=O)c1nn2cc(Br)cnc2c1Cl	0%	?	-4%	·	0%	6%	·	·
Cc1cc(N)n(-c2ccc(C(=O)O)cc2)n1	0%	-16%[14.2 µM]	2%	5%	-10%	-1%	·	·
CN1C(C(=O)NCc2ccco2)CC2Cn3c(nc4cc(Cl)c(Cl)cc43)C21 (stereo not given)	2%	·	-6%	-2%	-21%	·	·	·
COc1ccc(S(=O)(=O)Nc2cc3c4c(c2)CC(=O)N4CCC3)cc1	1%	-1%[46.1 µM]	-1%	·	-10%	4%	·	·
COc1ccccc1N1CCN(CCCNC(=O)Cn2ncc3c([nH]c4ccccc43)c2=O)CC1	6%	·	-11%	3%	-15%&-16%	3%[46.1 µM]	·	·
CCOc1ccc(NC(=O)c2ccc(NC(=O)c3cn4c5c(c(N6CCN(C)CC6)c(F)cc5c3=O)OCC4C)cc2)cc1 (stereo not given)	2%	-5%	-14%	-8%	-4%	?	?	?
CC(=O)Nc1ccc2nc(SCCOc3ccccc3)sc2c1	·	-20%[46.1 µM]	·	·	10%	-10%[46.1 µM]	-12%	?
CCOC(=O)Cn1cc(C(=O)c2ccccc2F)c2ccccc21	-7%	6%	0%	-12%	16%	1%	-2.4%	-1%
COCC(=O)NC1CCN(CC(=O)Nc2ccc(OC)cc2[N+](=O)[O-])CC1	5%	-1%	9%	-1%	-23%	-22%	1.2%	-8%
CCC(Sc1nc(=O)cc(N)n1-c1ccccc1)C(=O)Nc1cc(C)on1 (stereo not given)	?	-3%	-11%	3%	17%	5%	-5.0%	-12%
More compounds.
SMILES	SARS PLpro yeast	Marburg entry inh	RE007 growth inh	NS1 inh	2A StopGo	Lassa entry inh	Cruzain inh Det	Cruzain inh noDet
Cc1cccc2c1=NC(=O)/C(=C/c1c(O)[nH]c(=O)[nH]c1=O)C=2	11%	-8%	10%	4%	0%	4%	-3.5%	17%
O=C(c1cccc(F)c1)N1CCN(C(=O)c2cc3ncc(Br)cn3n2)CC1	-13%	-3%	4%	-1%	13%	4%	-4.8%	-3%
Cc1cc(-n2c(=O)c(C#N)cc3c(=O)n4cccc(C)c4nc32)no1	4%	-2%	-10%	-1%	-18%	7%	105%[activator]	?
Clc1ccc(-c2nnc(C3CC3)o2)cc1	-5%	-5%	-18%	-1%	49%[activator]	13%	·	·

Screens: PubChem BioAssay, National Center for Advancing Translational Sciences (NCATS)
